Screens (PubChem)
Polio RdRp inh – inhibitors of poliovirus RNA polymerase binding and polymerization; P03300; % elongation, % (compound at 16.7 µg/mL); poliovirus polymerase elongation, fluorescence polarization; hits give low values; 0.66% of 150,000 active; AID 588519; in the data active means % elongation below about 90%; further: some results filed as inactive read as strong as hits
Target sequence (P03300 1749-2209 limits assumed): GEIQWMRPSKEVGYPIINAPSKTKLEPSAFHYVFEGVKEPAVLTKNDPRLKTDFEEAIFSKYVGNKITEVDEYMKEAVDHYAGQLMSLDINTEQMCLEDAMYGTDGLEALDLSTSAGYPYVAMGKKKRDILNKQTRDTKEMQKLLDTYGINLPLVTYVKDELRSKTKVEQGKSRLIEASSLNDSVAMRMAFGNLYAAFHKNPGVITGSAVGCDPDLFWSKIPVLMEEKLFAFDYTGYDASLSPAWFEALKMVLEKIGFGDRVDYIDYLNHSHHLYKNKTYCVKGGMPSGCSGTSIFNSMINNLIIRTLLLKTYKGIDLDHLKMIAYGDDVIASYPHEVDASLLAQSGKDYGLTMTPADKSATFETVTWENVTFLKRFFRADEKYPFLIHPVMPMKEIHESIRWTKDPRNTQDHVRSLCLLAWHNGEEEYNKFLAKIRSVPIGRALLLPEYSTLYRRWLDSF
Polio RdRp inh intensity – further read-out of Polio RdRp inh, marked with its call; % elongation; measured here: total intensity read-out; formula for this scale not given here;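 total fluorescence in place of polarization; lower means less elongation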
The depositor's hits bear a star.

SMILES	Polio RdRp inh	Polio RdRp inh intensity
CCOc1ccc(CCNC(=O)Cn2nc(CC)n3c(cc4ccccc43)c2=O)cc1	115	118
COc1cccc(CNC(=O)CSc2nc3ccccc3nc2Cc2ccccc2)c1	105	113
COc1ccc(-c2onc(C)c2C)cc1S(=O)(=O)N1CCN(c2ccc(Cl)cc2)CC1	102	104
CN(C)S(=O)(=O)N(CC(=O)NCCSCc1c(F)cccc1Cl)c1ccccc1	105	107
Cc1ccc(S(=O)(=O)N2CCCc3cc(NC(=O)c4ccc(Cl)cc4)ccc32)cc1	109	112
CN(C)c1ccc(CNc2nc(-c3ccco3)nn2S(=O)(=O)c2ccc3ccccc3c2)cc1	106	106
CCCSc1nc2c(c(=O)[nH]1)C(c1ccc(O)c(OCC)c1)CC(=O)N2 (centres undefined)	111	106
Cn1c(=O)c2c(-c3cccc(Br)c3)n(CCO)cc2n(C)c1=O	109	111
COc1ccccc1CNC(=O)C1CCN(c2nc3ccc(C)cc3[nH]2)CC1	108	110
Cc1nn2c(-c3cccc(NC(=O)c4ccccc4)c3)nnc2c2ccccc12	110	112
CCOc1ccc(C(=O)Nc2ccc(-c3nc4ccccc4s3)c(C)c2)cc1OCC	107	105
Cc1ccc(NC(=O)Cn2nc(C(F)(F)F)c3c2CCCC3)cc1	103	104

Record cards, as listed above. Screens in order: Polio RdRp inh | Polio RdRp inh intensity
Listed for CCOc1ccc(C(=O)Nc2ccc(-c3nc4ccccc4s3)c(C)c2)cc1OCC = 107 | 105
Listed for COc1ccccc1CNC(=O)C1CCN(c2nc3ccc(C)cc3[nH]2)CC1 = 108 | 110
Listed for Cc1ccc(S(=O)(=O)N2CCCc3cc(NC(=O)c4ccc(Cl)cc4)ccc32)cc1 = 109 | 112
Listed for COc1ccc(-c2onc(C)c2C)cc1S(=O)(=O)N1CCN(c2ccc(Cl)cc2)CC1 = 102 | 104

The results go on.
SMILES	Polio RdRp inh	Polio RdRp inh intensity
O=C(Nc1ccccc1F)c1ccc(-c2ccccc2)s1	102	103
CCOC(=O)c1ccc(-n2c(-c3ccc(C)cc3)c(C)n3c4c(=O)n(C)c(=O)n(C)c4nc23)cc1	105	109
CCn1cc(C(=O)NCc2ccc(C)cc2)c(=O)c2cc(S(=O)(=O)N(C)C3CCCCC3)ccc21	109	111
Cc1sc2c(c1C)c(=O)n(Cc1ccccc1)c(=O)n2CC(=O)Nc1cccc(Cl)c1	104	109
COc1ccc(CCn2c(=O)c3cccnc3n(CC(=O)Nc3ccc(C)c(F)c3)c2=O)cc1OC	110	109
COc1ccc(-c2nc(CNS(=O)(=O)c3ccc(Br)cc3)cs2)cc1	108	108
COc1cccc(CNC(=O)CCc2nnc3n(C)c(=O)c4sccc4n23)c1	99	101
CCn1cc(S(=O)(=O)c2ccc(OC)cc2)c(=O)c2cc(F)c(N3CCCCCC3)cc21	101	99
CCOc1ccc(C(=O)/C=C/c2cn(CC(O)CN3CCCCCC3)c3ccccc23)cc1 (centres undefined)	107	109
Cc1ccc(C(=O)COC(=O)C(CC(C)C)NC(=O)C2CCC(C)CC2)cc1 (centres undefined)	110	105
Cc1c(Cl)cccc1NC(=O)c1ccc2c(c1)CCCN2S(C)(=O)=O	104	107
CC(=O)c1ccc(N2CCN(S(=O)(=O)c3ccc(-c4cc(C)no4)s3)CC2)cc1	107	115
CC(=O)c1cccc(NC(=O)CCc2nc3cccnc3n2Cc2cccs2)c1	114	166
Cc1ccc(-n2c(=O)c3c(cnn3C)n(CC(=O)Nc3cccc(Cl)c3)c2=O)cc1	102	104
Cc1cccc(N2CCN(C(=O)c3ccc(NC(=O)c4nsc5ccccc45)cc3)CC2)c1C	113	109
Cc1cccc(-n2c(SCC(=O)Nc3ccccc3Cl)nc3n[nH]c(C)c3c2=N)c1	102	107
Cc1cc2c(cc1S(=O)(=O)N1CCC(C)CC1)OCC(=O)N2	100	104
CCOc1ccccc1CNC(=O)C1CCN(S(=O)(=O)c2c(C)noc2/C=C/c2ccccc2F)CC1	107	102
COc1ccc(S(=O)(=O)Nc2c(C)n(C)n(-c3ccccc3)c2=O)cc1Br	107	111
COc1cc(NC(=O)c2cc(C3CC3)nc3c2c(C)nn3-c2ccc(C)cc2)cc(OC)c1	100	101
Cc1nc(N2CCOCC2)c2c(C(=O)NCc3ccc(Cl)cc3)c(C)oc2n1	110	106
Cc1cccc(NC(=O)C2CCCN(S(=O)(=O)c3c(C)noc3/C=C/N(C)C)C2)c1C (centres undefined)	105	109
O=c1c(N2CCCCC2)csc2ccc(F)cc12	107	109
COc1ccccc1CNC(=O)c1cc2c(=O)n(Cc3cccs3)ccc2nc1C	105	110
Cc1nc(-n2nc(C)c(CCC(C)C)c2C)sc1C(=O)Nc1ccc(Cl)cc1	106	106
CCOC(=O)c1c(-c2ccccc2)csc1NC(=O)c1cc(-c2ccc(Br)cc2)on1	78*	78*
CCOC(=O)c1cnn(-c2ccc(C(=O)Nc3ccc(C(C)=O)cc3)cc2)c1N	107	113
Cc1ccc(C2=NN(CC(=O)NCCCN(CC(C)C)CC(C)C)C(=O)CC2)cc1	114	115
COc1ccccc1CNCCSc1nnnn1C	105	108
COc1ccc(-c2nc(C)c(CCNC(=O)C(=O)Nc3ccccc3C#N)s2)cc1OC	109	113
Cc1cccc(C)c1NC(=O)c1oc2ccc3c(c2c1C)C(=O)CC(C)(C)O3	103	107
COc1ccc(-c2cc(C(=O)NCc3ccccc3)c3c(-c4ccccc4)[nH]nc3n2)cc1	103	103
CCOC(=O)c1cnc2ccccc2c1NCCc1ccc(OC)c(OC)c1	103	105
O=C(NCc1ccccc1F)C(=O)NCC(c1cccs1)S(=O)(=O)c1cccs1 (centres undefined)	103	107
COc1ccc2c(c1)c(N1CCCC1=O)c(C(=O)Nc1ccccc1C(F)(F)F)n2C	112	120
Cc1ccccc1Cn1c(=O)n(Cc2ccc3c(c2)OCO3)c(=O)c2oc3ccccc3c21	112	103
COc1ccc(CCCc2nnc(SCC(=O)Nc3cccc(C)c3)o2)cc1C	107	111
Cc1ccc(-n2c(=O)c3c(cnn3C)n(CC(=O)Nc3ccc(C)cc3C)c2=O)cc1	107	108
CC(C)OC(=O)c1c(NC(=O)COc2cccc(Br)c2)sc2c1CCCC2	107	104
CCc1ccc(S(=O)(=O)c2nnn3c2nc(Nc2ccc(F)cc2)c2cc(Cl)ccc23)cc1	105	108
COc1ccccc1N1CCN(C(CNC(=O)C(=O)NCc2cccnc2)c2cccnc2)CC1 (centres undefined)	106	111
CN1CCN(C(c2ccccc2Cl)c2sc3nc(-c4ccco4)nn3c2O)CC1 (centres undefined)	105	100
CCN(Cc1ccccc1)C(=O)Cn1c(=O)n(-c2ccc(Cl)c(Cl)c2)c(=O)c2c(C)c(C(=O)N(C)C)sc21	105	111
O=C(NCCC1=CCCCC1)c1ccc2c(c1)N(Cc1ccc(F)cc1)C(=O)c1ccccc1S2(=O)=O	101	102
COc1ccc(CNC(=O)C2CCN(S(=O)(=O)c3cn(C)cn3)CC2)cc1	112	115
CC(C)C(=O)Nc1ccccc1C(=O)OCc1cc(=O)n2nc(C3CC3)sc2n1	114	110
Cc1ccc(C)c(NC(=O)CSc2nnc3[nH]c(=O)cc(-c4ccccc4)n23)c1	111	108
O=C(Cn1ncc2c3ccccc3n(Cc3ccccc3)c2c1=O)NCc1cccs1	112	110
COc1ccc(CCNC(=O)C(=O)Nc2ccc(C)c(C)c2)cc1	105	111
CCC(=O)Nc1ccc(CC)cc1-c1nc2ccccc2n(CC(=O)Nc2cccc(OC)c2)c1=O	105	114
Cc1cccc(NC(=O)C(=O)NCC(c2cccnc2)N2CCOCC2)c1 (centres undefined)	112	109
COc1ccc(C)cc1NC(=O)CN1C(=O)CCc2cc(S(=O)(=O)N3CCOCC3)ccc21	116	110
Clc1ccccc1Cn1c(-c2cccs2)nc2ccccc21	106	110
CCc1ccc(S(=O)(=O)NCc2nc3cccnc3n2Cc2cccc(OC)c2)cc1	109	117
O=C(NCC1CCN(Cc2cccc(F)c2)CC1)c1cc2ccc3cccnc3c2[nH]1	108	107
Cc1ccc(NC(=O)C(=O)NCCCN2CCOCC2)cc1C	107	107
CCn1c(SCCOc2ccccc2F)nc2ccccc21	104	107
COc1cccc(C(=O)COC(=O)c2cc(-c3cccs3)nc3ccccc23)c1	105	111
COc1ccc(Nc2ncc(C(=O)N3CCN(c4ccc(OC)cc4)CC3)c3ccccc23)cc1	107	111
O=C(CSc1nc2ccccc2c2nc(-c3ccccc3)nn12)Nc1ccc(F)cc1	103	98
(list continues)
SMILES	Polio RdRp inh	Polio RdRp inh intensity
O=C(NC1CC(=O)N(c2ccc(Cl)cc2)C1)C(=O)c1c[nH]c2ccccc12 (centres undefined)	102	104
CN(C(=O)CSc1nc2ccc(NC(=O)COc3ccccc3)cc2s1)c1ccccc1	104	106
CC(C)(C)C1CCc2c(sc(NC(=O)CCC(=O)O)c2C(=O)Nc2ccccc2C(F)(F)F)C1 (centres undefined)	101	104
Cc1c(C(=O)Nc2ccc(F)cc2)oc2ccc(S(=O)(=O)N3CCCCCC3)cc12	100	107
COCCN(Cc1ccco1)C(=O)c1cc2c(Cl)nc3ccc(C)cc3c2s1	107	108
CCC(C)Cn1c(/C=C/c2ccccc2)nc2ccccc21 (centres undefined)	103	104
CC1CCN(C(=O)c2cnn(-c3ccc(Cl)cc3)c2C2CCN(C(=O)OC(C)(C)C)CC2)CC1	102	106
Cc1ccc(-c2nc3cc(NC(=O)c4cc(Br)ccc4Cl)ccc3o2)cc1	99	100
COc1ccc(NC(=O)CC2C(=O)N(c3cccc(OC)c3)C(=O)N2Cc2cccnc2)cc1 (centres undefined)	109	114
O=C(c1ccc(CSc2nc3ccncc3n2Cc2ccccc2F)cc1)N1CCCCC1	110	111
CCOC(=O)c1ccc(NC2SC(=O)N(Cc3cccc(C(=O)O)c3)C2=O)cc1 (centres undefined)	99	99
COc1ccc(N2CCN(C(=O)CCn3c(=O)c4cccn4c4cccnc43)CC2)cc1	103	106
O=C(NCCc1ccc(F)cc1)C(=O)NCC(c1cccs1)S(=O)(=O)c1ccc(Cl)cc1 (centres undefined)	109	115
Cc1ccc(-n2ncc(C(=O)NCCc3ccsc3)c2C2CCN(C(=O)OC(C)(C)C)CC2)cc1C	107	110
COCCCNC(=O)c1ccc(Cn2c(=O)c3ccccc3n(CC(=O)Nc3ccc(C)cc3C)c2=O)cc1	101	103
CSc1ccc(-c2nnn(CC(=O)Nc3sc4c(c3C#N)CCC(C(C)(C)C)C4)n2)cc1 (centres undefined)	107	111
N#Cc1cccc(NC(=O)c2cc3c(s2)-c2ccc(Cl)cc2SC3)c1	104	105
COc1ccc(-c2nn(-c3ccc(F)cc3)c3c2cnc2cc4c(cc23)OCO4)cc1	108	114
COc1ccccc1Cc1nc2ccccc2nc1SCC(=O)N1CCC(C)CC1	107	108
CCN(C(=O)c1cn(CC)c(=O)c2cc(OC)c(OC)cc12)c1ccc(C)c(C)c1	106	104
COc1ccc(Cl)cc1NC(=O)CSc1cn(CC(=O)N2CCCCCC2)c2ccccc12	108	106
COc1ccccc1N1CCN(C(=O)c2ccc3c(c2)CCN3S(=O)(=O)c2ccccc2)CC1	110	107
COC(=O)CCSc1nc2sc3c(c2c(=O)n1Cc1ccccc1)CCC(C(C)(C)C)C3 (centres undefined)	108	113
CC(C)Cc1nn2cc(-c3cccc(Br)c3)nc2s1	103	95
COc1ccccc1OC(C)C(=O)NCC1(N2CCOCC2)CCCCC1 (centres undefined)	104	108
CCCCC(=O)N1CC(=O)Nc2ccc(F)cc2C1c1ccc(F)cc1 (centres undefined)	106	106
CCc1ccc(NC(=O)N2CC(C)Oc3ccc(C)cc32)cc1 (centres undefined)	103	97
CCCCC(=O)OC1=C(C(=O)c2ccccc2)N(CC)S(=O)(=O)c2ccccc21	99	104
Cc1nnc(N2CCN(c3ccccc3F)CC2)c2c1nnn2Cc1ccc(F)cc1	109	111
CCCSc1nnc(NC(=O)c2cc(=O)c3ccccc3o2)s1	104	109
Cc1ccc(Cl)cc1N1CCN(C(=O)C(C)n2ncn3cccc3c2=O)CC1 (centres undefined)	110	116
Cc1ccc(N2CCN(S(=O)(=O)c3ccc(F)c(C(=O)Nc4ccc(Cl)cc4Cl)c3)CC2C)cc1 (centres undefined)	108	112

Of the compounds above, 15 have an aryl thioether with sulfur outside any ring:
SMILES	Polio RdRp inh	Polio RdRp inh intensity
COc1cccc(CNC(=O)CSc2nc3ccccc3nc2Cc2ccccc2)c1	105	113
CCCSc1nc2c(c(=O)[nH]1)C(c1ccc(O)c(OCC)c1)CC(=O)N2 (centres undefined)	111	106
Cc1cccc(-n2c(SCC(=O)Nc3ccccc3Cl)nc3n[nH]c(C)c3c2=N)c1	102	107
COc1ccccc1CNCCSc1nnnn1C	105	108
COc1ccc(CCCc2nnc(SCC(=O)Nc3cccc(C)c3)o2)cc1C	107	111
Cc1ccc(C)c(NC(=O)CSc2nnc3[nH]c(=O)cc(-c4ccccc4)n23)c1	111	108
CCn1c(SCCOc2ccccc2F)nc2ccccc21	104	107
O=C(CSc1nc2ccccc2c2nc(-c3ccccc3)nn12)Nc1ccc(F)cc1	103	98
CN(C(=O)CSc1nc2ccc(NC(=O)COc3ccccc3)cc2s1)c1ccccc1	104	106
O=C(c1ccc(CSc2nc3ccncc3n2Cc2ccccc2F)cc1)N1CCCCC1	110	111
CSc1ccc(-c2nnn(CC(=O)Nc3sc4c(c3C#N)CCC(C(C)(C)C)C4)n2)cc1 (centres undefined)	107	111
COc1ccccc1Cc1nc2ccccc2nc1SCC(=O)N1CCC(C)CC1	107	108
COc1ccc(Cl)cc1NC(=O)CSc1cn(CC(=O)N2CCCCCC2)c2ccccc12	108	106
COC(=O)CCSc1nc2sc3c(c2c(=O)n1Cc1ccccc1)CCC(C(C)(C)C)C3 (centres undefined)	108	113
CCCSc1nnc(NC(=O)c2cc(=O)c3ccccc3o2)s1	104	109

Not all compounds are listed. The share of hits here may be higher or lower than overall.
